A1 apoptosis 2 – blocks A1, raising caspase activity | MEF A1-2A-BIM cells, caspase-Glo luminescence, 3 h; percent of clofoctol response, DMSO zero | caspase activation, % (concentration not given with the values) | 24,000 tested, under 10 active; in the data active = caspase activation above about 5.9%;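 also: wells of about 30 µL received 50 nL stock; the first replicate is given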
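Material: A1-2A-BIM-expressing MEF cells. Buffer or medium: RPMI-1640 plus 10% FBS. Incubation: cells settled overnight, compound exposure 3 h at 37 °C, 5% CO2. Signal: Caspase-Glo 3/7 luminescence, 1 h at room temperature.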
* marks the source's active call; other numbers are inactive results. Some of the compounds tested (hit frequency here may not be typical).

SMILES | A1 apoptosis 2
C[C@H]1CN([C@@H](C)CO)C(=O)Cc2cc(NC(=O)Nc3ccc(F)cc3)ccc2O[C@H]1CN(C)C | 0.7
C[C@H]1CN([C@@H](C)CO)C(=O)Cc2cc(NC(=O)Cc3ccccc3)ccc2O[C@H]1CN(C)S(=O)(=O)c1ccc(Cl)cc1 | 1.3
COc1ccc(CN(C)C[C@@H]2OCCCC[C@@H](C)Oc3ccc(NS(=O)(=O)c4c(C)noc4C)cc3C(=O)N([C@H](C)CO)C[C@@H]2C)cc1 | 0.4
Cc1noc(C)c1S(=O)(=O)N(C)C[C@@H]1Oc2ccc(NC(=O)Cc3cn(C)c4ccccc34)cc2CC(=O)N([C@@H](C)CO)C[C@@H]1C | 0.5
C[C@H](CO)N1C[C@H](C)[C@H](CN(C)C(=O)Nc2ccccc2)Oc2ccc(NC(=O)c3ccncc3)cc2CC1=O | 0.2
CNC[C@@H]1OCCCC[C@H](C)Oc2ccc(NC(=O)C3CCCCC3)cc2C(=O)N([C@@H](C)CO)C[C@@H]1C | 0.0
CC(C)(C)[C@@H]1C=C(C(=O)N2CCOCC2)O[C@H](OCc2ccc(CO)cc2)C1 | -0.4
Cc1ccc(S(=O)(=O)N(C)C[C@H]2Oc3c(NC(=O)C4CCCCC4)cccc3C(=O)N([C@H](C)CO)C[C@@H]2C)cc1 | -0.6
C[C@H]1CN([C@@H](C)CO)C(=O)c2cccc(NC(=O)CCCCCC(=O)Nc3ccccc3N)c2O[C@H]1CN(C)S(=O)(=O)c1ccc(Cl)cc1 | 1.2
COc1ccc(CN(C)C[C@@H]2Oc3ccc(NS(=O)(=O)c4cccs4)cc3C(=O)N([C@H](C)CO)C[C@H]2C)cc1 | -0.2
C[C@H]1CN([C@@H](C)CO)C(=O)c2cc(NC(=O)Nc3cccc4ccccc34)ccc2O[C@H]1CN(C)C(=O)Nc1ccccc1 | -1.0
C[C@@H]1CN([C@H](C)CO)C(=O)c2cc(N(C)C)ccc2O[C@@H]1CN(C)Cc1ccc(Cl)c(Cl)c1 | -1.4
CNC[C@@H]1OCCCC[C@@H](C)Oc2ccc(NC(=O)Nc3ccc(F)cc3)cc2C(=O)N([C@@H](C)CO)C[C@@H]1C | 0.4
COc1ccc(S(=O)(=O)Nc2ccc3c(c2)CC(=O)N([C@@H](C)CO)C[C@@H](C)[C@H](CN(C)S(=O)(=O)c2cn(C)cn2)O3)cc1 | -0.4
Cc1ccc(S(=O)(=O)N(C)C[C@H]2Oc3ccc(NS(=O)(=O)c4ccccc4)cc3C(=O)N([C@@H](C)CO)C[C@H]2C)cc1 | -0.4
C[C@@H]1CCCCO[C@@H](CN(C)CC2CC2)[C@@H](C)CN([C@H](C)CO)C(=O)c2cc(NS(=O)(=O)c3cccs3)ccc2O1 | -1.1
C[C@@H]1CCCCO[C@H](CN(C)C(=O)Nc2cccc3ccccc23)[C@H](C)CN([C@@H](C)CO)C(=O)c2cc(NC(=O)Nc3ccccc3)ccc2O1 | 0.0
C[C@H](CO)N1C[C@H](C)[C@H](CN(C)S(=O)(=O)c2cccc(F)c2)Oc2ncc(C#Cc3ccc(C(F)(F)F)cc3)cc2C1=O | 0.0
CC(C)NC(=O)N(C)C[C@@H]1OCCCC[C@@H](C)Oc2ccc(N(C)C)cc2C(=O)N([C@H](C)CO)C[C@H]1C | 0.1
COc1ccc(S(=O)(=O)Nc2ccc3c(c2)C(=O)N([C@@H](C)CO)C[C@H](C)[C@@H](CN(C)S(=O)(=O)c2ccc(OC)cc2)OCCCC[C@H](C)O3)cc1 | -1.4
C[C@@H]1CN([C@H](C)CO)C(=O)c2cccc(NS(C)(=O)=O)c2O[C@@H]1CN(C)C(=O)Nc1ccccc1 | -0.2
O=C(O)CCCCCCC(=O)N/N=C/c1ccc(F)cc1 | 1.6
COc1ccc(CN(C)C[C@H]2Oc3ccc(NC(=O)CCN4CCOCC4)cc3CC(=O)N([C@H](C)CO)C[C@@H]2C)cc1 | -1.0
C[C@@H]1CN([C@@H](C)CO)C(=O)Cc2cc(NC(=O)Cc3cn(C)c4ccccc34)ccc2O[C@H]1CN(C)C(=O)NC1CCCCC1 | -0.9
C[C@H]1CN([C@@H](C)CO)C(=O)c2cccc(NC(=O)C3CCOCC3)c2O[C@@H]1CN(C)S(=O)(=O)c1cccs1 | 0.8

The closing 4 entries of the section before open the next one.
SMILES | A1 apoptosis 2
O=C(O)CCCCCCC(=O)N/N=C/c1ccc(F)cc1 | 1.6
COc1ccc(CN(C)C[C@H]2Oc3ccc(NC(=O)CCN4CCOCC4)cc3CC(=O)N([C@H](C)CO)C[C@@H]2C)cc1 | -1.0
C[C@@H]1CN([C@@H](C)CO)C(=O)Cc2cc(NC(=O)Cc3cn(C)c4ccccc34)ccc2O[C@H]1CN(C)C(=O)NC1CCCCC1 | -0.9
C[C@H]1CN([C@@H](C)CO)C(=O)c2cccc(NC(=O)C3CCOCC3)c2O[C@@H]1CN(C)S(=O)(=O)c1cccs1 | 0.8
C[C@H](CO)N1C[C@H](C)[C@H](CN(C)CC2CCCCC2)Oc2ccc(NC(=O)Cc3cn(C)c4ccccc34)cc2C1=O | 0.5
CC(C)NC(=O)Nc1ccc2c(c1)C(=O)N([C@H](C)CO)C[C@H](C)[C@H](CN(C)CC1CC1)OCCCC[C@@H](C)O2 | -0.1
C[C@@H]1CN([C@H](C)CO)C(=O)Cc2cc(N(C)C)ccc2O[C@H]1CN(C)Cc1ccncc1 | 0.1
Cc1ccc(S(=O)(=O)Nc2ccc3c(c2)C(=O)N([C@H](C)CO)C[C@H](C)[C@H](CN(C)S(C)(=O)=O)OCCCC[C@@H](C)O3)cc1 | -1.3
C[C@@H]1CN([C@@H](C)CO)C(=O)c2cc(NS(=O)(=O)c3cn(C)cn3)ccc2O[C@H]1CN(C)CC1CCCCC1 | -0.1
COc1ccc(CN(C)C[C@H]2Oc3ccc(NC(=O)Cc4cn(C)c5ccccc45)cc3C(=O)N([C@@H](C)CO)C[C@@H]2C)cc1 | 1.0
CCCN(C)C[C@H]1OCCCC[C@@H](C)Oc2ccc(NC(=O)CCCN(C)C)cc2C(=O)N([C@H](C)CO)C[C@H]1C | -0.5
C[C@H](CO)N1C[C@H](C)[C@@H](CN(C)S(C)(=O)=O)OCCCC[C@H](C)Oc2ccc(NC(=O)Nc3ccc(C(F)(F)F)cc3)cc2C1=O | -0.5
COc1ccc(NC(=O)Nc2ccc3c(c2)CC(=O)N([C@H](C)CO)C[C@@H](C)[C@H](CN(C)C)O3)cc1 | -1.1
Cc1noc(C)c1S(=O)(=O)N(C)C[C@H]1OCCCC[C@H](C)Oc2ccc(NC(=O)CCC(F)(F)F)cc2C(=O)N([C@H](C)CO)C[C@H]1C | -0.4
C[C@@H]1CCCCO[C@H](CN(C)C(=O)NC2CCCCC2)[C@H](C)CN([C@H](C)CO)C(=O)c2cc(NS(=O)(=O)c3cn(C)cn3)ccc2O1 | 0.3
CC(=O)CC(=O)N1C(=O)N(C)[C@@]2(C)Oc3ccccc3[C@@H]1[C@H]2COC(=O)c1ccc([N+](=O)[O-])cc1 | -0.1
C[C@@H]1CN([C@H](C)CO)C(=O)Cc2cc(NC(=O)Nc3ccccc3)ccc2O[C@H]1CN(C)C(=O)Nc1ccccc1 | 0.2
Cc1noc(C)c1NC(=O)N(C)C[C@@H]1Oc2ccc(NC(=O)c3ccncc3)cc2C(=O)N([C@H](C)CO)C[C@@H]1C | -1.2
C[C@@H]1CN([C@H](C)CO)C(=O)Cc2cc(NS(=O)(=O)c3cn(C)cn3)ccc2O[C@H]1CN(C)C | 0.3
O=C(CCCCCCC(=O)NO)N=NC=C1C=CN(O)C=C1 | -0.7
Cc1ccc(S(=O)(=O)Nc2ccc3c(c2)C(=O)N([C@H](C)CO)C[C@H](C)[C@H](CN(C)S(=O)(=O)c2cn(C)cn2)OCCCC[C@@H](C)O3)cc1 | 0.6
CNC[C@@H]1Oc2ccc(NC(=O)Cc3cn(C)c4ccccc34)cc2C(=O)N([C@H](C)CO)C[C@@H]1C | 0.4
Cc1noc(C)c1NC(=O)N(C)C[C@@H]1Oc2ccc(NC(=O)CCC(F)(F)F)cc2CC(=O)N([C@H](C)CO)C[C@H]1C | 1.4
CNC[C@H]1Oc2c(NS(=O)(=O)c3ccccc3)cccc2C(=O)N([C@@H](C)CO)C[C@@H]1C | 1.9
C[C@@H]1CN([C@@H](C)CO)C(=O)c2cccc(NC(=O)Nc3ccc4c(c3)OCO4)c2O[C@H]1CN(C)C | -0.5
C[C@H](CO)N1C[C@H](C)[C@@H](CN(C)C)Oc2ccc(NC(=O)CCCCCC(=O)Nc3ccccc3N)cc2C1=O | 0.4
Cc1noc(C)c1NC(=O)Nc1ccc2c(c1)C(=O)N([C@@H](C)CO)C[C@@H](C)[C@H](CN(C)C(=O)Nc1cccc3ccccc13)O2 | 0.2
Cc1noc(C)c1NC(=O)Nc1ccc2c(c1)C(=O)N([C@@H](C)CO)C[C@@H](C)[C@@H](CN(C)C)OCCCC[C@@H](C)O2 | 0.3
C[C@H]1CN([C@@H](C)CO)C(=O)c2cc(NC(=O)C3CC3)ccc2O[C@@H]1CN(C)C(=O)Nc1ccc(F)cc1 | -0.3

Nothing new here: an excerpt of the list.
SMILES | A1 apoptosis 2
Cc1noc(C)c1NC(=O)Nc1ccc2c(c1)C(=O)N([C@@H](C)CO)C[C@@H](C)[C@@H](CN(C)C)OCCCC[C@@H](C)O2 | 0.3
C[C@H]1CN([C@@H](C)CO)C(=O)c2cc(NC(=O)C3CC3)ccc2O[C@@H]1CN(C)C(=O)Nc1ccc(F)cc1 | -0.3

Quoted at random: 4 records from the list.
SMILES | A1 apoptosis 2
Cc1noc(C)c1NC(=O)Nc1ccc2c(c1)C(=O)N([C@@H](C)CO)C[C@@H](C)[C@@H](CN(C)C)OCCCC[C@@H](C)O2 | 0.3
Cc1noc(C)c1NC(=O)N(C)C[C@@H]1Oc2ccc(NC(=O)CCC(F)(F)F)cc2CC(=O)N([C@H](C)CO)C[C@H]1C | 1.4
COc1ccc(NC(=O)Nc2ccc3c(c2)CC(=O)N([C@H](C)CO)C[C@@H](C)[C@H](CN(C)C)O3)cc1 | -1.1
Cc1noc(C)c1S(=O)(=O)N(C)C[C@H]1OCCCC[C@H](C)Oc2ccc(NC(=O)CCC(F)(F)F)cc2C(=O)N([C@H](C)CO)C[C@H]1C | -0.4

Later entries.
SMILES | A1 apoptosis 2
C[C@@H]1CCCCO[C@@H](CN(C)S(C)(=O)=O)[C@H](C)CN([C@@H](C)CO)C(=O)c2cc(NC(=O)Nc3ccccc3)ccc2O1 | 1.8
C[C@H]1CN([C@@H](C)CO)C(=O)c2cc(NS(=O)(=O)c3cn(C)cn3)ccc2O[C@H]1CN(C)Cc1ccc(C(=O)O)cc1 | -0.1
CC(C)NC(=O)Nc1ccc2c(c1)C(=O)N([C@H](C)CO)C[C@@H](C)[C@@H](CN(C)Cc1ccc(C(=O)Nc3ccccc3N)cc1)O2 | -0.2
COc1ccc(NC(=O)N(C)C[C@H]2Oc3ccc(NS(=O)(=O)c4ccc(F)cc4)cc3CC(=O)N([C@H](C)CO)C[C@@H]2C)cc1 | 0.1
C[C@@H]1CN([C@H](C)CO)C(=O)Cc2cc(N(C)C)ccc2O[C@H]1CN(C)Cc1ccccc1 | -0.5
C[C@@H]1CN([C@@H](C)CO)C(=O)c2cc(NC(=O)Cn3cnnn3)ccc2O[C@H]1CN(C)Cc1ccccc1 | 0.0
C[C@H]1CN([C@@H](C)CO)C(=O)c2cc(NS(=O)(=O)c3ccc(Cl)cc3)ccc2O[C@H]1CN(C)S(=O)(=O)c1cccs1 | 1.4
C[C@@H]1CCCCO[C@H](CN(C)Cc2ccc(C(F)(F)F)cc2)[C@@H](C)CN([C@@H](C)CO)C(=O)c2cc(NC(=O)c3ccccc3)ccc2O1 | -0.5
Cc1ccc(S(=O)(=O)Nc2ccc3c(c2)C(=O)N([C@H](C)CO)C[C@H](C)[C@H](CN(C)C(=O)NC2CCCCC2)O3)cc1 | -0.2
Cc1noc(C)c1NC(=O)Nc1ccc2c(c1)CC(=O)N([C@@H](C)CO)C[C@@H](C)[C@@H](CN(C)CC1CCCCC1)O2 | 0.4
O=S(=O)(c1ccc2ccccc2c1)N1CCN(Cc2cccc(OCCO)c2)CC1 | -1.3
COc1ccccc1S(=O)(=O)N(C)C[C@@H]1OCc2cn(nn2)CCCC(=O)N([C@H](C)CO)C[C@@H]1C | -1.2
C[C@H](CO)N1C[C@H](C)[C@@H](CN(C)S(=O)(=O)c2cccs2)Oc2c(NC(=O)Nc3ccc(C(F)(F)F)cc3)cccc2C1=O | 0.3
C[C@@H]1CN([C@@H](C)CO)C(=O)c2cccc(NC(=O)C3CC3)c2O[C@@H]1CN(C)Cc1ccc(C(F)(F)F)cc1 | 0.3
CC(C)NC(=O)Nc1ccc2c(c1)C(=O)N([C@@H](C)CO)C[C@@H](C)[C@@H](CN(C)C(=O)Cc1ccccc1)OCCCC[C@H](C)O2 | -0.6
C[C@@H]1CN([C@H](C)CO)C(=O)CCCn2nncc2CO[C@@H]1CN(C)C(=O)c1ccncc1 | 0.2
C[C@@H]1CCCCO[C@H](CN(C)Cc2ccccc2)[C@@H](C)CN([C@@H](C)CO)C(=O)c2cc(N(C)C)ccc2O1 | -0.8
C[C@H](CO)N1C[C@H](C)[C@H](CN(C)CC2CCCCC2)Oc2c(NC(=O)Nc3ccc(F)cc3)cccc2C1=O | -1.0
C[C@@H]1CN([C@H](C)CO)C(=O)Cc2cc(NC(=O)Nc3ccc(F)cc3)ccc2O[C@@H]1CN(C)C(=O)Nc1cccc2ccccc12 | 0.2
COc1ccc(CN(C)C[C@@H]2Oc3ccc(NC(=O)Nc4ccc(OC)cc4)cc3CC(=O)N([C@@H](C)CO)C[C@H]2C)cc1 | -1.4
C[C@H]1CCCCO[C@H](CN(C)C(=O)Nc2cccc3ccccc23)[C@@H](C)CN([C@@H](C)CO)C(=O)c2cc(NC(=O)CCCN(C)C)ccc2O1 | 0.3
C[C@H]1CCCCO[C@H](CN(C)Cc2ccc(Cl)c(Cl)c2)[C@@H](C)CN([C@@H](C)CO)C(=O)c2cc(NC(=O)Nc3ccc(C(F)(F)F)cc3)ccc2O1 | 0.1
